# Screens as filed in PubChem BioAssay.
# CBX7 inh: CBX7 chromodomain binding inhibitors, primary screen, biochemical, AlphaScreen | 66,000 tested, 1.1% active | AID 1224903, 2016 | Chromobox protein homolog 7 (Homo sapiens), O95931 | normalised signal (fraction of DMSO) (no concentration beside the values) | AlphaScreen His6-CBX7 / biotin-H3K27me3 peptide binding; stronger effect = lower value; in the data active = normalised signal below about 0.5;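 also: 100 nL library stock added to about 20 µL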
# Target sequence (O95931 whole entry, looked up): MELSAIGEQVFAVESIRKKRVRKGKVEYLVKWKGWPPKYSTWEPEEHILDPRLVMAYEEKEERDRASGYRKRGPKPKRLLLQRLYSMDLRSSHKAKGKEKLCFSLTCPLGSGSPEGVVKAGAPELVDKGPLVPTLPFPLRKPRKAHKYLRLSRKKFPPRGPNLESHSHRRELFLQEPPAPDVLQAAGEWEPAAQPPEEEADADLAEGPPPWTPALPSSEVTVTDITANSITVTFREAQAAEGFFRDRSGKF
# CBX7 inh z-score: second read-out of CBX7 inh, no call of its own (marks repeat the call); z-score; measured here: z-score of CBX7 signal; some inactives read as strong as hits; reference of the scale not given here;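 same signal on another scale; lower means less binding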
# Active calls of the source: *; ! = not confirmed by another sample. These rows are one share of the data; the hit share may differ from the screen's.
canonical_smiles	CBX7 inh z-score	CBX7 inh
CCc1ccc(NC(=O)c2sc3ncn(CC(=O)N4CCOCC4)c(=O)c3c2C)cc1	-0.14	0.99
Cc1cccc(NC(=O)C2CCCN(S(=O)(=O)c3cccs3)C2)c1 (configuration not stated)	-0.15	0.88
Cc1nc(NCCC2=CCCCC2)c2c3c(sc2n1)CCC3	0.65	1.1
O=C(NCc1ccccc1Cl)C(=O)Nc1ccc2c(c1)OCO2	-0.81	0.97
O=C(O)c1ccc2c(c1)N(Cc1ccc(Cl)cc1)C(=O)c1ccccc1S2(=O)=O	1	1.1
COC(=O)c1c(NC(=O)c2c(Br)cnn2C)sc2c1CCC(C)C2 (configuration not stated)	1.7	1.1
Brc1ccc(-c2csc(Nc3ccc4c(c3)OCO4)n2)cc1	-7.2*!	0.35*!
Cc1cc(N2CCC(C(=O)NC3CC3)CC2)n2nc(C)c(-c3ccc(Cl)cc3)c2n1	1	1
Clc1ccc2c(Nc3ccc(Oc4ccccc4)cc3)ccnc2c1	0.0074	1
C=CCSc1nnc(Cc2cc(=O)[nH]c(=O)[nH]2)n1-c1cccc(C)c1	0.32	1.1
CCCCOc1ccc(C2C(N3C(=O)c4ccccc4C3=O)C(=O)N2c2cc(C)cc(C)c2)cc1 (configuration not stated)	-0.53	0.98
COc1cccc(N2CCN(C(=O)c3ccc4c(c3)NC(=O)c3ccccc3N4)CC2)c1	-3.2	0.6
COc1ccc(S(=O)(=O)N2Cc3ccccc3CC2C(=O)N2CCCCCC2)cc1 (configuration not stated)	0.85	1.1
COc1ccc2c(c1)CCC(C1(O)C(=O)N(C)c3ccccc31)C2=O (configuration not stated)	0.51	1
C/C(=C\c1ccccc1)c1nc(-c2c(F)cccc2F)no1	18	1.9
CCOC(=O)c1cnc2c(C)cc(C)cc2c1Nc1cccc(Cl)c1	2.6	1.3
COc1ccc(C2SCCN2C(=O)c2c(-c3ccccc3Cl)noc2C)cc1 (configuration not stated)	-0.47	0.98
COc1ccc(C2=NN(CCC(=O)NC3CCCCC3C)C(=O)CC2)cc1 (configuration not stated)	1.1	1.1
Cc1ccc(C)c(NC(=O)C2CCN(S(=O)(=O)c3ccc(F)cc3)CC2)c1	1.5	1
CC(C)c1ccc(NC(=O)c2cnn(-c3ccccc3)c2-n2cccc2)cc1	1.2	1
O=C(Nc1ccc(Cl)cc1)Nc1nnc(-c2cccc(F)c2)s1	0.29	1.1
COc1cc(-n2cnc3cc(C(=O)NCCC4=CCCCC4)ccc32)cc(OC)c1OC	-2.7	0.78
CCOc1ccc2nc(NC(=O)c3ccc(OC)cc3)sc2c1	1.5	1.1
O=C(Cn1nc(Cc2cccnc2)c2ccccc2c1=O)Nc1ccc(Cl)cn1	-1.2	0.96
CC(C)(Oc1ccc(Cl)cc1)C(=O)NCCCn1ccnc1	-1.7	0.94
CCOC(=O)N1CCC(NC(=O)c2ccc3c(c2)N=C(CC)c2ccccc2S3)CC1	-1.5	0.87
CCc1ccc(NC(=O)COc2cc(=O)n(CC)c3ccccc23)cc1	-2	0.88
CC(C)(C)OC(=O)N1CCC(c2c(C(=O)Nc3cccnc3)cnn2-c2ccccc2)CC1	-0.33	0.99
CCCCCn1c(C(CCCC)NC(C)=O)nc2ccccc21 (configuration not stated)	0.25	1
O=C(Nc1c(C(=O)Nc2ccc(F)cc2)oc2ccccc12)c1ccc(F)cc1	3.6	1.1
Cc1ccc(C)c(Cn2c(=O)n(CCC(=O)NCc3ccccc3)c(=O)c3sccc32)c1	1.1	1.1
CCC1=Nc2cc(C(=O)NCCCN3CCC(C)CC3)ccc2Sc2ccc(C)cc21	-0.54	0.95
c1ccc(-c2noc(CCC3CCCCC3)n2)nc1	-0.15	0.89
CCOC(=O)c1c(NC(=O)CCc2ccc(OC)cc2)sc2c1CCC(C)C2 (configuration not stated)	1	1.1
CCOc1ccccc1C(=O)Nc1nc(-c2ccc(C)cc2)cs1	1.3	1.1
CCOC(=O)CNC(=O)c1sc2ncn(CC(=O)Nc3cccc(C(F)(F)F)c3)c(=O)c2c1C	1.3	1.1
Cc1ccccc1-c1nc(CS(=O)(=O)CC(=O)N2CCN(Cc3ccccc3)CC2)c(C)o1	-8	0.69
COc1ccc(NC2c3ccccc3C(=O)N2c2cc(C)ccn2)cc1 (configuration not stated)	-0.84	0.98
CC(C)CCNC(=O)Cc1ccc(NC2=NC3CS(=O)(=O)CC3S2)cc1 (configuration not stated)	1.4	1.1
COCCCNC(=O)c1ccc(Cl)c(NC2=NC3CS(=O)(=O)CC3S2)c1 (configuration not stated)	0.53	1

# Some values from the list:
# CCOc1ccc2nc(NC(=O)c3ccc(OC)cc3)sc2c1 | CBX7 inh: 1.1
# CCOC(=O)N1CCC(NC(=O)c2ccc3c(c2)N=C(CC)c2ccccc2S3)CC1 | CBX7 inh z-score: -1.5

# Compound profiles, as listed above. Screens in order: CBX7 inh z-score | CBX7 inh
# Record of COc1cc(-n2cnc3cc(C(=O)NCCC4=CCCCC4)ccc32)cc(OC)c1OC : -2.7 | 0.78
# Record of CC(C)CCNC(=O)Cc1ccc(NC2=NC3CS(=O)(=O)CC3S2)cc1 (configuration not stated) : 1.4 | 1.1

# (continued)
canonical_smiles	CBX7 inh z-score	CBX7 inh
Cc1ccc(-c2nc(S(=O)(=O)c3ccccc3)c(SCC(=O)NCC3CCCO3)o2)cc1 (configuration not stated)	0.063	1
O=[N+]([O-])c1ccc2nc(N3CCNCC3)nc(-c3ccccc3)c2c1	-0.26	0.93
O=C(Nc1cccc(Cl)c1)c1cc(-c2ccc3c(c2)OCO3)on1	1.8	1.1
CCc1ccc(NC(=O)c2cc(-c3ccc(OC)c(OC)c3)on2)cc1	1.6	1.2
OCCN1CCN(c2ncnc3scc(-c4ccc(F)cc4)c23)CC1	-0.27	0.99
c1cncc(CNc2nnc(Cc3ccncc3)c3ccccc23)c1	0.56	1
CCc1ccc(OCCn2c(-c3ccc(Cl)cc3)nc3ccccc3c2=O)cc1	-0.45	0.96
Cc1ccc2oc(-c3ccc(NC(=O)c4ccc5c(c4)OCCO5)cc3O)nc2c1	0.41	1.1
O=C1C2C3C=CC(C3)C2C(=O)N1c1ccccc1O (configuration not stated)	1.1	1.1
CCc1ccccc1N(C)C(=O)Cn1nc(Cc2cccnc2)c2ccccc2c1=O	-1.4	0.96
Cc1ccc(C(=O)Nc2nc(C34CC5CC(CC(C5)C3)C4)cs2)cc1	3.4	1.4
Cc1ccc(-n2ncc(C(=O)Nc3cc(Cl)ccc3C)c2C2CCNCC2)cc1C	-1.4	0.93
O=C(NCC1CCCO1)C1CCN(c2nc3ccccc3n2Cc2ccc(F)cc2)CC1 (configuration not stated)	1.5	1.1
Cn1c2ccccc2c2c(C(=O)NCCCN3CCc4ccccc4C3)cn(C3CCCC3)c(=O)c21	-2.9	0.88
CCCN1Cc2cccc(C(=O)N3CCN(c4ccc(OC)cc4)CC3)c2C1=O	0.028	1
Cc1nn(Cc2ccccc2Cl)c(C)c1NC(=O)c1cc(CC(C)C)on1	0.88	1.1
Cc1cc(NC(=O)CCN2CCN(Cc3ccccc3)CC2)no1	-2.8	0.82
Cc1cccc(CCNC(=O)[C@@H](c2ccccc2)N2Cc3ccccc3C2=O)c1	-0.087	1
COc1ccc(CC(=O)Nc2c3c(nn2-c2cccc(C)c2C)CSC3)cc1OC	-3.7	0.87
O=C(NCC1CCCO1)c1ccc2c(c1)ncn2-c1cccc(F)c1 (configuration not stated)	1.4	1.1
COc1ccc2c(c1)-c1nc(NC(=O)c3cccc(Cl)c3)sc1CC2	-0.24	0.99
COc1cccc(-c2nn(C)c3sc(C(=O)N4CCN(C)CC4)cc23)c1	-0.77	0.94
CC(=O)Nc1c2c(nn1-c1ccc(C)cc1)CS(=O)(=O)C2	2.3	1.4
CCc1nnc(NC(=O)CCN2C(=O)c3ccccc3S2(=O)=O)s1	2.4	1.1
Cc1ccc(-c2nc(Nc3ccc(F)cc3)sc2CC(=O)O)cc1	-1.1	0.96
CCCC1=Nc2cc(C(=O)NCCc3ccc(Cl)cc3)ccc2Sc2ccc(C)cc21	-1.9	0.82
CC(=O)Nc1ncc2c(n1)CC(c1cccs1)CC2=O (configuration not stated)	-0.086	1
COc1ccc(Nc2ncc(F)c(Nc3ccc(OC)cc3)n2)cc1	-7.7	0.82
Cc1ccc(CNC(=O)C(=O)Nc2ccc3c(c2)OCO3)cc1	-0.79	0.97
Cc1cccc(NC2c3ccccc3C(=O)N2Cc2ccccc2Cl)c1C (configuration not stated)	-0.051	0.98
CC(C)N(Cc1ccccc1)S(=O)(=O)c1ccc(C(=O)Nc2nnc(-c3cccs3)o2)cc1	-3	0.88
COc1ccc(-c2nc(-c3cccs3)[nH]c2-c2ccc(OC)cc2)cc1	-5.6	0.64
c1ccc(-c2csc(N3CCC(c4ccccc4)CC3)n2)cc1	3.4	1.1
Cc1ccc(-n2c3c(cc(C(=O)Nc4ccc(Cl)cn4)c2=O)C(=O)CC(C)(C)C3)cc1	0.53	1.1
COc1ccccc1OCc1nc(C#N)c(NCCCn2ccnc2)o1	-2.8	0.94
O=C(O)c1ccc(N2C(=O)CC(Nc3ccc(F)cc3)C2=O)cc1 (configuration not stated)	0.92	1.1
Cc1ccccc1NC(=O)CCc1c(C)nc2c(-c3ccc(F)cc3)c(C)nn2c1C	0.46	1.1
Cc1cccc(NC(=O)COc2ccc(N3CC(C(N)=O)CC3=O)cc2)c1 (configuration not stated)	-0.57	0.99
COc1ccccc1N1CCN(C(=O)c2cn(C3CCCCC3)c(=O)c3c2c2ccccc2n3C)CC1	-4.9	0.8
COCCNC(=O)CCc1c(C)nc2cc(-c3ccccc3OC)nn2c1C	1.2	1

# Reformatted: 3 of the compounds above
> CC(=O)Nc1ncc2c(n1)CC(c1cccs1)CC2=O (configuration not stated)
  CBX7 inh z-score: -0.086
  CBX7 inh: 1

> COc1cccc(-c2nn(C)c3sc(C(=O)N4CCN(C)CC4)cc23)c1
  CBX7 inh z-score: -0.77
  CBX7 inh: 0.94

> COCCNC(=O)CCc1c(C)nc2cc(-c3ccccc3OC)nn2c1C
  CBX7 inh z-score: 1.2
  CBX7 inh: 1

# Further structures follow:
canonical_smiles	CBX7 inh z-score	CBX7 inh
COc1ccc(S(=O)(=O)N2CC=C(C(=O)Nc3ccc(F)cc3C)CC2)cc1	4.1	1.1
Cc1ccc(Nc2c(-c3ccc(N(C)C)cc3)nc3cccc(C)n23)cc1	-11	0.7
Cc1cccc(NC(=O)c2ccc(COc3cccc4ccccc34)cc2)n1	2	1.1
CCn1c(SCC(=O)Nc2nc3ccccc3s2)nnc1-c1c[nH]c2ccccc12	0.68	1.1
CCOC(=O)N1CCN(c2c(NCc3cccs3)c(=O)c2=O)CC1	1.6	1.1
CC(C)OC(=O)c1nnn(-c2nonc2N)c1CN1CCc2ccccc21	-2.4	0.64
Cc1nn(-c2ccccc2)c2[nH]c(C(=O)NCc3ccc(F)cc3)cc(=O)c12	-1.1	0.9
Cc1ccn2c(Nc3ccc4c(c3)OCO4)c(-c3cc(Br)ccc3F)nc2c1	-4.1	0.75
Cc1ccc(-c2nc3ccc(C)cn3c2NC(=O)c2ccc(Cl)cc2)cc1	-1.8	0.93
O=C(CN1CCN(Cc2ccc(F)cc2)C1=O)NCCc1ccccc1	-0.39	0.97
CC(C)CCNC(=O)c1ccc2c(c1)ncn2C1CCCCC1	3.3	1.1
Cc1ccc(CNC(=O)C2CCCN(C(=O)c3cc4sccc4n3C)C2)cc1 (configuration not stated)	-4.1	0.86
Cc1cc(N2CCCCC2)nc2ccc(NC(=O)CCC(=O)NC(C)CCc3ccccc3)cc12 (configuration not stated)	-0.94	0.96
CCCNC(=O)C1CCN(C(=O)c2sccc2-n2cccc2)CC1	-1.4	0.97
Cc1ccc(C)c2[nH]c(=O)c(CCNC(=O)c3ccc(S(=O)(=O)N4CCCCC4)cc3)cc12	0.93	1
COc1ccc(C(=O)NCCc2nc3ccccc3n2CC(C)C)cc1OC	0.71	1.1
O=C1c2cccnc2C(O)N1Cc1ccccc1 (configuration not stated)	-3.1	0.78
N#Cc1nc(COc2ccccc2)oc1NCCCn1ccnc1	-6	0.67
Cc1ccc(CNC(=O)C2CCCN(Cc3nc(-c4ccccc4C)oc3C)C2)cc1 (configuration not stated)	-0.3	0.99
COc1ccc(CCN2C(=O)N(c3cccc(OC)c3)C(=O)C2CC(=O)Nc2ccccc2)cc1 (configuration not stated)	-0.12	0.95
O=S1(=O)N=C(Nc2ccccc2)c2ccccc21	2.3	1.1
COc1ccc(OCc2nc3ccccc3n2Cc2ccc3ccccc3c2)cc1	-1.6	0.94
CCOc1ccc(N2CC(C(=O)NCc3cccc(C)c3)CC2=O)cc1 (configuration not stated)	-0.21	0.85
Cc1ccc(C(=O)Nc2cc(-c3nc4ccccc4o3)ccc2C)c(Cl)c1	0.4	1
CCOCCCNC(=O)C1CCCN(c2nc3ccc(OCC)cc3s2)C1 (configuration not stated)	1.5	1.1
Nc1nonc1-c1nc2ccccc2n1CC(=O)N1CCOCC1	-0.55	0.96
Cc1ccc(NC(=O)C2CCN(S(=O)(=O)c3cccnc3)CC2)cc1	1.9	1.1
COCCNC(=O)CSc1nc(-c2ccc(C)cc2)[nH]c1-c1ccc(Cl)cc1	-0.97	0.92
Cc1cccc(C)c1NC(=O)CN1C(=O)CSc2ncccc21	0.06	1
CCC(=C(c1ccc(OC)cc1)c1ccc(OC)cc1)c1cn(CCN(C)C)c2ccccc12	-4.2*	0.32*
Cc1onc(-c2ccccc2)c1C(=O)N(Cc1ccccc1)Cc1ccccc1	1.4	1.1
COc1ccc(-c2nc3ccc(C)cc3nc2-c2ccc(OC)cc2)cc1	6.7	2
